KCNQ2 pot = potentiators of rat KCNQ2 potassium channel; actives 0.54% (n = 310,000); Potassium voltage-gated channel subfamily KQT member 2 (Rattus norvegicus), O88943; B-score at 10 µM; AID 2239, 2010; CHO-K1 KCNQ2, FluxOR thallium flux fluorescence; active compounds read high;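 active = fluorescence ratio B-score at least 3 SD of library B-scores, with initial fluorescence B-score within 3 SD, cut at about 5.3 in these data; same plate scores as AID 2156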;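 note: B-score of peak minus minimum over baseline fluorescence ratio after K+ and Tl+ stimulus; positive B-score means potentiation of KCNQ2 with more thallium influx and brighter signal; only the inactives scoring about 0 or higher are listed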
Target sequence (O88943 whole entry, looked up): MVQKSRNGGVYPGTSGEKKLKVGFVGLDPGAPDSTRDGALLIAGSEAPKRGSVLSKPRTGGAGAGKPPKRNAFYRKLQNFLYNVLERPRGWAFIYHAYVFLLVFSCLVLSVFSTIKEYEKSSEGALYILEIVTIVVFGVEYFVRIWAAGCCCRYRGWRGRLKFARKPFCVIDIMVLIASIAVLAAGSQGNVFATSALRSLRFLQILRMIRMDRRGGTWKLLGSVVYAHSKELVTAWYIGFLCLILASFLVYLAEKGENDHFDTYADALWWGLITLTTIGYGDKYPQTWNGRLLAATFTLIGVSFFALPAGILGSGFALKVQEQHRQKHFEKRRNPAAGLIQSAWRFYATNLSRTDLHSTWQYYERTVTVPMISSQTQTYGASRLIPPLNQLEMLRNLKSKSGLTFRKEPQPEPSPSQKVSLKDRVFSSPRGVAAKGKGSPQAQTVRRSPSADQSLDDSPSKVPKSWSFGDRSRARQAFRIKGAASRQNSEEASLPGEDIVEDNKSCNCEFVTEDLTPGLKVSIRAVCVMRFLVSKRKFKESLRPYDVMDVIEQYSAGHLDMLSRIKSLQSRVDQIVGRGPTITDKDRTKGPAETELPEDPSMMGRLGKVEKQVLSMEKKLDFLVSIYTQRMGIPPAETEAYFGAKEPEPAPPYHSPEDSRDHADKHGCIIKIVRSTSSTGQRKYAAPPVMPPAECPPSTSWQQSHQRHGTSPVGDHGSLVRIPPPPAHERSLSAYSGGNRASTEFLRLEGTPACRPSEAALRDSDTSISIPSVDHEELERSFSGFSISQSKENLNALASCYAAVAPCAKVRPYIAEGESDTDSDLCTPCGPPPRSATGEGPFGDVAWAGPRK
KCNQ2 pot baseline = recorded beside KCNQ2 pot, whose call it bears; B-score; compound at 10 µM; measured here: initial fluorescence intensity artifact check;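 brightness before thallium and not channel activity; 0 = typical well and far values either way flag optical interference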
An asterisk follows results filed as active.

SMILES	KCNQ2 pot	KCNQ2 pot baseline
CC(CC(=O)Nc1ccc(Br)cc1F)S(=O)(=O)c1ccc2c(c1)NC(=O)CO2 (configuration not stated)	1.4	-0.43
COCCNC(=O)c1cc2c(s1)-c1ccc(Cl)cc1SC2	0.66	-0.81
Cc1cccc(-n2c(N)cc(=O)nc2SCC(=O)Nc2nnc(CC(C)C)s2)c1	0.3	-0.52
Cc1cc(C)nc(N/N=C/c2ccccc2OCC(=O)O)n1	0.57	0.18
Cn1c(CCNC(=O)c2cccs2)n[nH]c1=S	0.24	0.81
CCn1c(CNC(=O)C2CCCCC2)cc2ccccc21	2.1	-1.8
O=C1CC2(CCOCC2)Oc2ccc3ccccc3c21	0.13	-0.02
N/C(=N\OC(=O)Oc1ccccc1)c1ccc(Br)cc1	1.4	1.5
O=C(CCS(=O)(=O)c1ccc(Br)cc1)Nc1ccc(Cl)cc1F	0.62	-0.78
N#Cc1c(N)n(Cc2ccccc2)c(=O)c2cc([N+](=O)[O-])ccc12	0.03	-1.6
COC(=O)c1cc(C(C)=O)c(C)[nH]c1=O	0.19	1
O=C1c2nc3cc(-c4ccco4)[nH]n3c(=O)c2CN1Cc1ccccc1	1.3	0
COc1ccccc1N1CCN(C2CCCN(C(=O)c3csc(C)n3)C2)CC1 (configuration not stated)	1.3	0.03
CC(=O)Nc1ccc(NCc2cccs2)cc1	0.95	-0.2
CCN(CC)c1ccc(N2C(=O)C3CCCCC3C2=O)cc1[N+](=O)[O-] (configuration not stated)	3.1	-1.8
CCc1nnc(NS(=O)(=O)c2ccc(NC(=O)c3cc(Cl)ccc3[N+](=O)[O-])cc2)s1	1	-0.08
COc1ccc(CCc2nnc(CCC(=O)NCc3cc(C(C)C)no3)o2)cc1	2.6	0.68
CC(=O)Nc1ccc(S(=O)(=O)c2c(N)n(CCN3CCOCC3)c3nc4ccccc4nc23)cc1	1.6	-1.7
COc1ccc(OC)c(Nc2nnc(C)c(=O)[nH]2)c1	0.89	0.33
CCOC(=O)c1cnn(-c2nc(SC)nc3sc4c(c23)CCC4)c1N	0.41	-0.4
COc1ccc(C2c3[nH]c4ccccc4c3C[C@H]3C(=O)N(c4ccccc4C(=O)NCCN4CCOCC4)C(=O)N23)cc1 (some centres not stated)	0.43	-0.02
Cn1ncc2c(Nc3ccccc3Br)ncnc21	0.11	-2.1
CN(c1ncc(C(F)(F)F)cc1Cl)n1cc(C(=O)O)c2ccccc2c1=O	0.07	-1.4
O=C1C=CCC(/C=C/c2ccccc2)O1 (configuration not stated)	0.11	-0.19
CCOC(=O)C1CCN(C(=O)Cn2c(=O)c3cccn3c3cccnc32)CC1	1	-0.07
CC(Nc1cccc2ccccc12)C(=O)N/N=C/c1ccccn1 (configuration not stated)	0.67	0.55
COc1cc(S(=O)(=O)N2CCN(C(=O)c3ccco3)CC2)ccc1Cl	2	-1.3
Cc1ccc(S(=O)(=O)N(C)C)cc1NC(=S)N(C)C1CCN(C)CC1	0.15	0.2
CCCCCCSc1cccc(-c2nc3cc(C)ccn3c2NCc2ccccc2)c1	0.02	0.02
Clc1cccc(Cl)c1CNCCCSc1ncccn1	0.84	1.2
CCOC(=O)/C(C#N)=C/C1=C(N2CCCC2)CC(C)(C)OC1	0.52	0.67
CC(=O)Nc1ccc(N(C(=O)Cn2nnc3ccccc32)C(C(=O)NC2CCCC2)c2ccc(O)c(O)c2)cc1 (configuration not stated)	1.6	-0.94
Cc1ccc(OCC(=O)NCCCNC(=O)c2ccco2)cc1C	0.1	0.6
Cc1ccccc1-n1c(-c2ccc(=O)[nH]n2)n[nH]c1=S	1.9	-1
Cc1ccc(NC2OC(CO)C(O)C2O)cc1[N+](=O)[O-] (configuration not stated)	1.7	-0.17
Cc1c(C=O)c(=O)n(-c2ccccc2)n1-c1ccccc1	1.1	-0.1
COc1ccc(C(=O)NNC(=O)CN2CCC(n3nnc4cc(F)ccc43)CC2)cc1	1.2	0.91
CCC1CN(C(=O)NCc2ccccc2)c2cc(Cl)ccc2O1 (configuration not stated)	0.19	-0.21
O=C(NCc1ccccn1)Nc1ccccc1	0.67	0.1
O=C(Nc1cccc(F)c1)c1cc(S(=O)(=O)N2CCOCC2)cs1	0.03	-2.2
O=S(=O)(c1cccc(Br)c1)N1CCN(C(=S)NCC2CCCO2)CC1 (configuration not stated)	0.39	-0.04
O=C(NC(=S)NC1CCSC1=O)c1ccc([N+](=O)[O-])cc1 (configuration not stated)	0.31	-1.6
Cc1ccc(N(CC(=O)N/N=C/c2cc(C)n(-c3ccccc3)c2C)S(C)(=O)=O)c(C)c1	1.6	-0.36
COc1ccc(CC(=O)O/N=C(\N)c2ccccn2)cc1	0.71	0.01
CCN(CCCNC(=O)COc1cc(=O)n(C)c2ccccc12)c1ccccc1	0.34	1.3

Given with two lines to a compound: entries from further up
Results follow in this order: KCNQ2 pot, KCNQ2 pot baseline
- O=S(=O)(c1cccc(Br)c1)N1CCN(C(=S)NCC2CCCO2)CC1 (configuration not stated)
    0.39, -0.04
- COc1ccc(C(=O)NNC(=O)CN2CCC(n3nnc4cc(F)ccc43)CC2)cc1
    1.2, 0.91

Next part
SMILES	KCNQ2 pot	KCNQ2 pot baseline
N#C/C(=N/Nc1ccc(OC(F)(F)F)cc1)C(N)=S	0.81	-2.5
CCOc1ccc(N2CC(C(=O)NCCc3c[nH]c4ccc(C)cc34)CC2=O)cc1 (configuration not stated)	0.92	-0.43
C/C(CC(=O)Nc1ccc(F)cc1)=N\NC(=O)Cc1csc(N)n1	0.23	-1.5
Cc1ccc(CC(=O)Nc2ccc(S(=O)(=O)Nc3nccc(C)n3)cc2)cc1	1.6	-1
O=C(Cn1cc(C(F)(F)F)ccc1=O)Nc1cccc(S(=O)(=O)N2CCOCC2)c1	1.1	-0.77
Cc1cc(C)cc(NC(=O)CSc2nc3c(c(=O)[nH]2)CN(Cc2ccc(F)cc2)CC3)c1	1.3	2.3
Nc1nc(SCc2ccc(Cl)cc2Cl)nc2nc3c(cc12)CCCC3	0.15	0.87
Cc1cc(C)c2c(=O)[nH]c(SCC(=O)Nc3ccc(Br)cc3)nc2n1	0.13	-0.01
CCOC(=O)C1CCN(CC(O)COCc2ccc(Cl)cc2)CC1 (configuration not stated)	1.2	-0.56
CC(C)Cn1c(-c2cccs2)nc2nc3ccccc3nc21	0.04	1.2
O=C1C=C(NCc2ccc(Cl)c(Cl)c2)C2(CCCCC2)O1	0.22	1.4
Cc1cc(/C=N/NC(=O)c2cccnc2)c(C)n1CC(C)C	0.03	1.2
Cc1ccc(S(=O)(=O)N2CCCOC2CNC(=O)C(=O)NCc2ccc3c(c2)OCO3)cc1 (configuration not stated)	1.1	0.08
Nc1cc(=O)[nH]c(SCC(=O)Nc2ccc(S(=O)(=O)N3CCOCC3)cc2)n1	0.01	-0.93
COc1ccc(/C=N/NC(=O)c2ccc(N(C)S(=O)(=O)c3ccccc3)cc2)cc1	0.52	-2.2
COc1ccc(NC(=S)N2CCC(N(C)CCN3CCOCC3)CC2)cc1Cl	0.2	0.01
Cc1nc(C(Cl)(Cl)Cl)nc2[nH]ccc(=O)c12	0.23	0.39
CCn1c(CCNC(=O)c2ccc(Cl)cc2)n[nH]c1=S	0.69	-0.17
CC(C)(C)NCC(=O)c1c[nH]c2ccccc12	1.3	1.1
O=C(N/N=C/c1ccc(OCCCF)cc1)c1cc(OCC(F)(F)F)ccc1OCC(F)(F)F	0.64	1.7
COCCNC(=O)c1cc(Br)ccc1Cl	0.28	1.2
CCCC1CC(CSc2ncn[nH]2)OC1=O (configuration not stated)	1.8	-0.53
N#Cc1cccc(S(=O)(=O)Nc2c(NC3CCCCC3)c3ccccc3oc2=O)c1	0.37	0.72
O=C(/C=C/c1ccc(S(=O)(=O)N2CCOCC2)cc1)NC(=S)Nc1ccc(Cl)cc1Cl	0.91	0.86
Cc1occc1-c1nnc(SCc2nc3ccccc3c(=O)n2CC#N)n1C	0.91	0.01
Nn1c(SCC(=O)Nc2ccc(F)cc2)nnc1-c1ccccn1	0.04	1.8
CC(=O)Nc1ccc(N=Nc2c(C)[nH]n(C(N)=S)c2=O)cc1	0.11	-1.3
CCCc1ccc2oc(C(=O)N3CCC[C@H]3CO)c(C)c2c1	3.9	-0.19
CC(=O)N1CCC(N(CCN2CCOCC2)C(=S)Nc2cc(C)cc(C)c2)CC1	1.7	-0.88
C=C(C)C1Cc2nc(N)nc(C)c2C1 (configuration not stated)	0.47	0.9
O=C(N/N=C/c1c(Cl)cccc1Cl)c1cccc(F)c1	0.49	1.5
Cc1cc(O)c(C(C)C)cc1N=Nc1ccccc1C(=O)O	0.62	1.1
COc1cc(C2NC(=O)NC(C)=C2C(=O)OC2CCCC(C)C2)ccc1O (configuration not stated)	1.6	-0.08
COc1ccc(OCC(=O)Nc2cccc(OC)c2)cc1	0.27	-0.82
CCN(CC)CCCSc1nc2ccccc2s1	1	-0.18
CN(C)S(=O)(=O)c1cccc(NC(=S)N(CCC#N)Cc2cccnc2)c1	0.59	-0.35
O=C(OCc1ccccc1)C1=NNC2C(=O)N(c3ccc(Br)cc3)C(=O)C12 (configuration not stated)	2.1	0.28
COC(=O)C1=C(C)N=C2SC(C#N)=C(N)N2C1c1ccc(OC)cc1 (configuration not stated)	0.89	0.16
CSc1nc(C)cc(SC(C(C)=O)C(=O)Nc2ccccc2)n1 (configuration not stated)	1.8	0.32
Cc1nc(NCc2cccnc2)c2c3c(sc2n1)CC(C)CC3 (configuration not stated)	3.5	-1.1
CCC1(c2ccccc2)NC(=S)N(c2ccc(C)cc2)N1 (configuration not stated)	13*	0.3*
CC(C)OC(=O)c1cccc(C(=O)Oc2ccccc2)n1	0.16	3.8
CCc1cc2c(=O)n(Cc3ccco3)c(SCc3c(C)noc3C)nc2s1	0.22	0.68
NC(=O)C1CCN(C2=C(NS(=O)(=O)c3ccccc3)C(=O)c3ccccc3C2=O)CC1	0.24	0.01
COc1ccc(CC(=O)N/N=C/c2cccs2)cc1OC	1.1	1.2

Copied from the list.
Value of CCC1(c2ccccc2)NC(=S)N(c2ccc(C)cc2)N1 (configuration not stated) in KCNQ2 pot baseline: 0.3*
Value of Cc1nc(NCc2cccnc2)c2c3c(sc2n1)CC(C)CC3 (configuration not stated) in KCNQ2 pot baseline: -1.1
Value of NC(=O)C1CCN(C2=C(NS(=O)(=O)c3ccccc3)C(=O)c3ccccc3C2=O)CC1 in KCNQ2 pot: 0.24
Value of Cc1cc(O)c(C(C)C)cc1N=Nc1ccccc1C(=O)O in KCNQ2 pot: 0.62

(listing goes on)
SMILES	KCNQ2 pot	KCNQ2 pot baseline
O=C(CCCN1C(=O)c2cccc3cccc(c23)C1=O)NCc1cccs1	0.02	-0.66
Cc1cccc(NS(=O)(=O)c2coc(C(N)=O)c2)c1C	0.82	-0.73
CC(=O)c1ccc(OCCCOc2cccc3cccnc23)cc1	1.3	-1.3
C=CCSc1nsc(NC(=O)Nc2cccc(C(C)=O)c2)n1	2.6	-2.5
Nc1ccc2nc(CCCCCCCCc3nc4ccc(N)cc4[nH]3)[nH]c2c1	0.47	1.4
Cn1cnc([N+](=O)[O-])c1Sc1n[nH]c(N)n1	0.35	-0.8
COCCNc1ncnc2nc[nH]c12	0.3	0.78
NS(=O)(=O)c1cccc(NC(=O)/C=C/c2cccs2)c1	0.94	-2.4
O=c1ccc(-c2nc3cc(Cl)ccc3n2Cc2ccccc2)c[nH]1	0.03	-0.12
COC(=O)CNC(=O)C1Nc2ccc(OC(F)(F)F)cc2C2C=CCC12 (configuration not stated)	0.74	1.3
Cc1cccc(OCC(=O)N2CCC(N3CCCCCC3)CC2)c1	0.05	-0.62
CCOC(=O)c1[nH]c(C)c(C(=O)c2ccc(C)cc2)c1C	1.8	0.71
Cc1nc(CCNC(=O)Cc2ccc(F)cc2)cs1	0.73	0.33
CCOC(=O)c1c(NCc2ccccc2)n[nH]c1C	0.62	-0.04
CC(=O)N(C)c1ccc(NC(=O)C(c2ccccc2)c2ccccc2)cc1	0.4	0.43

Sorted by molecular weight (low to high): some entries from above.
SMILES	KCNQ2 pot	KCNQ2 pot baseline
N#Cc1c(N)n(Cc2ccccc2)c(=O)c2cc([N+](=O)[O-])ccc12	0.03	-1.6
CCN(CCCNC(=O)COc1cc(=O)n(C)c2ccccc12)c1ccccc1	0.34	1.3
CCc1cc2c(=O)n(Cc3ccco3)c(SCc3c(C)noc3C)nc2s1	0.22	0.68

Quoted at random: 3 entries already listed.
SMILES	KCNQ2 pot	KCNQ2 pot baseline
CC(=O)c1ccc(OCCCOc2cccc3cccnc23)cc1	1.3	-1.3
C=CCSc1nsc(NC(=O)Nc2cccc(C(C)=O)c2)n1	2.6	-2.5
COCCNc1ncnc2nc[nH]c12	0.3	0.78

(next part)
SMILES	KCNQ2 pot	KCNQ2 pot baseline
COc1cccc(C(=O)N(Cc2ccco2)Cc2cc3cccc(C)c3[nH]c2=O)c1	1.3	0.11
Cc1cccc(NC(=O)C2CCCN(C(=O)Nc3ccccc3)C2)c1C (configuration not stated)	1.6	-1.4
CCOc1ccc(NC(=O)CNc2ccc(C)cc2Cl)cc1	0.42	0.21
Cc1csc(NC(=O)c2cccc([N+](=O)[O-])c2C(=O)O)n1	0.29	0.24
CC(NC(=O)C1CCCN(C(=O)N(C)C)C1)c1ccccc1 (configuration not stated)	2.5	1.9
O=C(Cn1cc(/C=N/NC(=O)c2ccccc2Br)c2ccccc21)Nc1ccc(F)cc1	1.5	0.87
Cc1ccc(C)c(N2C(=O)C3C4C=CC(CC4)C3C2=O)c1 (configuration not stated)	0.95	-2.3
CCC(C)(C(=O)NC1CCCC1)N(C)C(=O)Cc1c[nH]c2ccccc12 (configuration not stated)	0.01	-0.06
CC(=O)Nc1ccc(N2C(=O)CC(Sc3nc4ccccc4s3)C2=O)cc1 (configuration not stated)	2.2	0.47
O=C(Cc1ccccc1)NCC(=O)N1CCN(c2ccccc2)CC1	0.43	0.07
COc1ccc(COC(=O)C2=C(C)NC(=O)NC2c2ccccc2)cc1 (configuration not stated)	0.52	0.79
Cc1cc(C)n2nc(SCc3nnc(SCc4ccccc4C)s3)nc2n1	0.1	0.18

Some of the compounds tested; rates above refer to the full screens.
